VACV mCherry inh: qHTS for Stage-Specific Inhibitors of Vaccinia Orthopoxvirus: mCherry Reporter Primary qHTS. hit rate 0.63% among 310,000. Potency, µM (highest dose often 36.5 µM), for the others: at the highest dose activity change, negative = inhibition, hits mostly inhibitors. AID 720579, 2013. Vaccinia virus mCherry reporter infection, fluorescence; about a quarter of the inactives have no number; active = well fitted inhibition curve with a large enough effect; inconclusive = small, poorly fitted or top-dose-only effect; inactive = no such curve, though single readings can be large or run the other way; tested in A549 cells; also: nearly all actives have a fitted effect of over 35% in size; inactives centre near -10
Vaccinia Venus: qHTS for Stage-Specific Inhibitors of Vaccinia Orthopoxvirus: Venus Reporter Primary qHTS | Vaccinia virus Venus reporter expression, fluorescence | Potency, µM (titrated, usually from 36.5 µM), for inactives: top-dose activity change, negative = inhibition, usual class: inhibitors | hit rate 0.46% among 330,000; active means well fitted inhibition curve with a large enough effect; inconclusive means small, poorly fitted or top-dose-only effect; inactive means no such curve, though single readings can be large or run the other way; tested in A549 cells; also: nearly all actives have a fitted effect of over 30% in size; inactives centre near -10
An asterisk follows results filed as active; [ ] = another dose, or the depositor's remark. % is scaled to controls: 0 for no effect and ±100 for the full control effect; potency is read from the fitted curve at half-maximal effect.

For CC1(C)CC(=O)C(Sc2ccc(Br)cc2)=C(O)C1 the results were VACV mCherry inh 8% and Vaccinia Venus -4%.
For COc1ccc(-c2nnc(SCC(=O)NC(C)c3ccccc3)o2)cc1 (stereo not given) the results were VACV mCherry inh -9% and Vaccinia Venus -9%.
Screening CCc1ccc(NC(=O)CSc2nnc(CNC(=O)c3cccs3)o2)cc1 returned VACV mCherry inh inactive and Vaccinia Venus -10%.
`Cc1ccc(OCC(=O)N/N=C/c2cc([N+](=O)[O-])ccc2N2CCCCC2)cc1` gave VACV mCherry inh -6% and Vaccinia Venus -1%.
For COc1cccc(NC(=O)Nc2cc(C(=O)O)ccc2C)c1 the results were VACV mCherry inh inactive and Vaccinia Venus 3%.
`CC1(Cc2ccc(OC(F)(F)F)cc2)C(=O)Nc2c(Cl)ccc(Cl)c21` (stereo not given) gave VACV mCherry inh -16% and Vaccinia Venus -9%.
CCOc1ccccc1Cn1c(=O)oc2ccc(C)cc21 was read as Vaccinia Venus -11%.
Screening Cc1nc(CS(=O)(=O)c2ccccn2)sc1C(=O)NNC(=O)c1ccccc1 returned VACV mCherry inh inactive and Vaccinia Venus -14%.
`COc1ccc(C(=O)Nc2nnc(S(=O)(=O)N3CCN(c4ccc(C)cc4)CC3)s2)cc1` gave VACV mCherry inh -24% and Vaccinia Venus -23%.
For COc1ccc(CC(=O)N2CCN(C(=O)c3ccco3)CC2)cc1 the results were VACV mCherry inh inactive and Vaccinia Venus -15%.
`O=C(Cc1ccc(-n2c(=O)[nH]c3ccsc3c2=O)cc1)NCc1cccnc1` gave VACV mCherry inh -10% and Vaccinia Venus -2%.
For O=S1(=O)CC(N2CCC(c3ccccc3)CC2)CN1Cc1ccc(F)cc1 (stereo not given) the results were VACV mCherry inh 9% and Vaccinia Venus -16%.
Screening COc1ccc(CCn2c(-c3ccco3)nc3ccccc3c2=O)cc1OC returned VACV mCherry inh -13% and Vaccinia Venus -10%.
Screening COc1ccc(NC(C)=O)cc1S(=O)(=O)Nc1ccc(S(=O)(=O)N2CCCCC2)cc1 returned VACV mCherry inh -11% and Vaccinia Venus -1%.
Screening Cc1noc(-c2ccc(N3CCCCC3)c([N+](=O)[O-])c2)n1 returned VACV mCherry inh -10% and Vaccinia Venus 0%.
COc1ccc(CC(=O)Nc2nc3c(s2)CC(C(C)(C)C)CC3)cc1 (stereo not given) was read as VACV mCherry inh -8% and Vaccinia Venus -6%.
CC(C)CNC(=O)COC(=O)CNC(=O)c1cc(Cl)cc([N+](=O)[O-])c1 was read as VACV mCherry inh -14% and Vaccinia Venus 0%.
For CC(=O)N1CCN(C(=O)c2ccc(Cl)c(S(=O)(=O)N3CCCCCC3)c2)CC1 the results were VACV mCherry inh inactive and Vaccinia Venus -7%.
Screening Cc1cc(C)n2nc(SCC(=O)N3CCCC3)nc2n1 returned VACV mCherry inh inactive and Vaccinia Venus -15%.
For COc1cc(NC(=O)CN2C(=O)NC(c3ccccc3)(c3ccccc3)C2=O)cc(OC)c1 the results were VACV mCherry inh inactive and Vaccinia Venus -20%.
Screening CCC(C)N(C(=O)COC(=O)c1ccccc1SCC(=O)N1CCCC1)C1CCS(=O)(=O)C1 (stereo not given) returned VACV mCherry inh -9% and Vaccinia Venus -9%.
`CC(CN1CCOCC1)c1ccccc1` (stereo not given) gave VACV mCherry inh -10% and Vaccinia Venus -3%.
`Cc1c(C(=O)N2CCCCC2)c(S(=O)(=O)NCc2ccc(F)cc2)c(C)n1C` gave VACV mCherry inh -21% and Vaccinia Venus -11%.
Cc1cc(C)cc(NC(=O)CCNC(=O)N2C[C@H]3C[C@@H](C2)c2cccc(=O)n2C3)c1 was read as VACV mCherry inh -7% and Vaccinia Venus -7%.
`Nc1[nH][nH]c(=O)c1N=Nc1ccc2c(c1)OCO2` gave VACV mCherry inh -14% and Vaccinia Venus -2%.
For O=C(CNC(=O)c1ccccc1)N/N=C/c1cc(Br)ccc1O the results were VACV mCherry inh inconclusive and Vaccinia Venus inconclusive.
Cn1c(=O)c2sccc2n2c(CCC(=O)NCc3ccc(F)cc3)nnc12 was read as VACV mCherry inh -20% and Vaccinia Venus -9%.
`O=C(CC1CCCC1)Nc1ccc2c(c1)CCC2` gave Vaccinia Venus -18%.
CCC(C(=O)Nc1sc(C(N)=O)c(C)c1C(=O)OC)c1ccccc1 (stereo not given) was read as VACV mCherry inh -11% and Vaccinia Venus -22%.
`N=C(c1ccc([N+](=O)[O-])cc1)N1CCCCCC1` gave VACV mCherry inh inconclusive and Vaccinia Venus -11%.
CCOC(=O)N1CCc2c(sc3c2c(=O)n(Cc2ccccc2)c(=O)n3Cc2ccccc2F)C1 was read as VACV mCherry inh inactive and Vaccinia Venus -20%.
For CCCCCCCN1C(Nc2ccccc2)=NC[C@@H]1Cc1ccccc1 the results were VACV mCherry inh -14% and Vaccinia Venus inconclusive.
`CCOc1ccc(CCNC(=O)COC(=O)c2nc(Cl)ccc2Cl)cc1OCC` gave VACV mCherry inh -15% and Vaccinia Venus -4%.
For Cn1c(=O)c2c(ncn2CC(=O)NC[C@H]2O[C@@H](n3cnc4c(N)ncnc43)[C@H](O)[C@@H]2O)n(C)c1=O the results were VACV mCherry inh -21% and Vaccinia Venus -8%.
`O=C(CCN1CCN(C/C=C/c2ccccc2)CC1)Nc1ccc(Cl)cc1` gave VACV mCherry inh -18% and Vaccinia Venus -16%.
Screening Cc1nnc(SCC(=O)Nc2ccc3c(c2)OCCO3)n1CC1CCCO1 (stereo not given) returned VACV mCherry inh -18% and Vaccinia Venus -4%.
CC1CN(S(=O)(=O)c2cccs2)CC(C)O1 (stereo not given) was read as VACV mCherry inh -12% and Vaccinia Venus -7%.
Screening COc1ccc(NC(=O)Cc2csc(NC(=O)Nc3ccccc3OC)n2)c(OC)c1 returned VACV mCherry inh inconclusive and Vaccinia Venus -16%.
COc1cc(CNCCc2ccccc2F)ccc1OCC(=O)N1CCCCC1 was read as VACV mCherry inh -23% and Vaccinia Venus 6%.
`COc1cc2c(cc1OC)-c1c(oc3cc(O)cc(O)c3c1=O)CO2` gave VACV mCherry inh inactive and Vaccinia Venus -5%.
O=C(COC(=O)c1cnccn1)NCc1ccc2c(c1)OCO2 was read as VACV mCherry inh -7% and Vaccinia Venus -7%.
For COC(=O)Cn1nc(-c2ccccc2)n(-c2ccccc2)c1=S the results were VACV mCherry inh 0% and Vaccinia Venus 12%.
CCOc1ccc(N(C(C)C(=O)NC2CCCCCC2)S(C)(=O)=O)cc1 (stereo not given) was read as VACV mCherry inh -20%[1.46 µM] and Vaccinia Venus -21%.
`CCOC(=O)C1CCN(CCCSc2ccc(Cl)cc2)CC1` gave VACV mCherry inh -2% and Vaccinia Venus -11%.
COn1c(=O)c(-c2ccc(F)cc2)[n+]([O-])c2ccccc21 was read as VACV mCherry inh -9% and Vaccinia Venus -5%.
For O=C(CCCN1C(=O)c2cccc3cccc(c23)C1=O)N1CCN(c2ccc(F)cc2)CC1 the results were VACV mCherry inh -22% and Vaccinia Venus -10%.
`Cc1ccc2oc(C(=O)N(CCO)Cc3ccccc3)c(C)c2c1` gave VACV mCherry inh inactive and Vaccinia Venus -10%.
COc1ccc(NC(=O)c2cc(OC)c(OC)c(OC)c2Br)cc1OC was read as VACV mCherry inh -10% and Vaccinia Venus -12%.

Compounds above with bromine, in the order listed:
For CC1(C)CC(=O)C(Sc2ccc(Br)cc2)=C(O)C1 the results were VACV mCherry inh 8% and Vaccinia Venus -4%.
For O=C(CNC(=O)c1ccccc1)N/N=C/c1cc(Br)ccc1O the results were VACV mCherry inh inconclusive and Vaccinia Venus inconclusive.
COc1ccc(NC(=O)c2cc(OC)c(OC)c(OC)c2Br)cc1OC was read as VACV mCherry inh -10% and Vaccinia Venus -12%.

Next results follow:
Screening C=C(CO)CC1CC(O)[C@]2(C)OC3CC4OC5C[C@]6(C)O[C@]7(C)CCC8OC9C[C@]%10(C)OC%11C(C)=CC(=O)OC%11CC%10OC9C[C@@H](C)C8OC7CC6O[C@]5(C)C/C=C\C4OC3CC2O1 (stereo not given in full) returned VACV mCherry inh 13% and Vaccinia Venus -12%.
For CCc1cccc(-n2nnc(-c3nsc(NC(=O)c4cccc(OC)c4)n3)c2C)c1 the results were VACV mCherry inh -18% and Vaccinia Venus -5%.
Cn1c(=O)[nH]c(=O)c2[nH]c(NCCCN3CCOCC3)nc21 was read as VACV mCherry inh -3% and Vaccinia Venus -4%.
Screening COc1ccc(S(=O)(=O)NCCc2csc3nc(-c4ccc(OC)c(OC)c4)nn23)cc1C returned VACV mCherry inh -11% and Vaccinia Venus -9%.
`COc1ccc2cc(CNc3ccccc3)c(=O)n(CC(=O)Nc3ccc(C(C)=O)cc3)c2c1` gave VACV mCherry inh -10% and Vaccinia Venus -8%.
`CC(NC(=O)C1CCCN1C(=O)c1cccs1)c1ccc(Cl)cc1Cl` (stereo not given) gave VACV mCherry inh inactive and Vaccinia Venus 2%.
Screening O=S(=O)(Cc1ccccc1)c1cnc2ccccc2n1 returned Vaccinia Venus -12%.
For CCc1nc2c(OCc3ccc(C#N)cc3)cccn2c1N(C)C(=O)c1ccc(C)cc1 the results were VACV mCherry inh 3% and Vaccinia Venus 1%.
Screening CC(C)(C)NC(=S)N1CCC2CC1c1c(Cl)cccc12 (stereo not given) returned VACV mCherry inh -16% and Vaccinia Venus -11%.
Screening Cc1ccc(Cn2nnnc2CN2CCC(NC(=O)c3ccc(Br)cc3)CC2)cc1 returned Vaccinia Venus -20%.
C=CCc1c(C)nc(-c2ccccc2)nc1Nc1ccccc1O was read as VACV mCherry inh -17% and Vaccinia Venus -11%.
O=C(CSc1ncn[nH]1)Nc1ccc2c(c1)CCC2 was read as VACV mCherry inh -1% and Vaccinia Venus -13%.
Screening CCc1nc2ccc(C(=O)N3CCN(S(=O)(=O)CC)CC3)cn2c1N(C)Cc1cccs1 returned VACV mCherry inh -4% and Vaccinia Venus 6%.
O=C(c1cc2c(s1)CCCCCC2)N1CCC2(CC1)OCCO2 was read as VACV mCherry inh -6% and Vaccinia Venus -13%.
O=S1(=O)CCOC[C@H](c2ccccc2)N1Cc1ccc(Cl)cc1Cl was read as VACV mCherry inh inactive and Vaccinia Venus -20%.
`Cc1ccc(CN2CCCn3nc(C(=O)NCc4cc(C)ccc4C)cc3C2=O)cc1` gave VACV mCherry inh -20% and Vaccinia Venus inconclusive.
For CC(=O)c1c(C)[nH]c(C(=O)OCC(=O)N2CCCC2=O)c1C the results were VACV mCherry inh -9% and Vaccinia Venus 4%.
`CCOC(=O)c1c(S(=O)(=O)Nc2cccc(Cl)c2)c(C)n(C)c1C` gave VACV mCherry inh -7% and Vaccinia Venus -28%.
Screening CCC(Sc1nc(=O)cc(N)n1-c1cccc(C)c1)C(=O)Nc1cc(C)on1 (stereo not given) returned VACV mCherry inh -4% and Vaccinia Venus -22%.
`Cc1ccc(C(C)C)c(O)c1C(=O)O` gave VACV mCherry inh -9% and Vaccinia Venus -15%.
Screening Cc1ccc(CNC(=S)Nc2ccc(NS(=O)(=O)c3ccc(C)cc3)cc2)cc1 returned VACV mCherry inh -14% and Vaccinia Venus -22%.
Screening Cn1c(=O)[nH]c(=O)c2c1nc(SCCO)n2CC(O)COc1ccccc1 (stereo not given) returned VACV mCherry inh -7% and Vaccinia Venus -2%.
For N/C(CCS(=O)(=O)c1ccc(Cl)cc1)=N\OC(=O)c1ccccc1C(F)(F)F the results were VACV mCherry inh inactive[7.34 µM] and Vaccinia Venus -20%[7.34 µM].
Screening CCCCNC(=O)CO/N=C(\C)c1cc2ccccc2o1 returned VACV mCherry inh inactive and Vaccinia Venus -12%.

Arranged by SMILES length (lowest first): five of the compounds above.
`CC(CN1CCOCC1)c1ccccc1` (stereo not given) gave VACV mCherry inh -10% and Vaccinia Venus -3%.
Screening O=S(=O)(Cc1ccccc1)c1cnc2ccccc2n1 returned Vaccinia Venus -12%.
COc1cc(CNCCc2ccccc2F)ccc1OCC(=O)N1CCCCC1 was read as VACV mCherry inh -23% and Vaccinia Venus 6%.
`Cc1ccc(OCC(=O)N/N=C/c2cc([N+](=O)[O-])ccc2N2CCCCC2)cc1` gave VACV mCherry inh -6% and Vaccinia Venus -1%.
Screening COc1ccc(S(=O)(=O)NCCc2csc3nc(-c4ccc(OC)c(OC)c4)nn23)cc1C returned VACV mCherry inh -11% and Vaccinia Venus -9%.

Other entries follow.
Screening O=C(NC1CCCC1)c1cccc2c1C(=O)c1ccc(Cl)cc1S2(=O)=O returned VACV mCherry inh inactive and Vaccinia Venus -17%.
Screening CCCC(=O)NC(c1ccc2c(c1)OCO2)c1cc(Cl)c2cccnc2c1O (stereo not given) returned VACV mCherry inh 13µM* and Vaccinia Venus inconclusive.
For CC1(C)CC(=O)C(CSC(=O)c2ccccc2)C(=O)C1 the results were VACV mCherry inh inactive and Vaccinia Venus -9%.
For Cc1ccc2nc(N3CCCCCC3)c(CN(CC3CCCO3)C(=O)c3cncs3)cc2c1 (stereo not given) the results were VACV mCherry inh -17% and Vaccinia Venus -9%.
Cc1cc(Cn2nc(C(=O)NCc3cccc(C(F)(F)F)c3)cc2-c2ccccc2)on1 was read as VACV mCherry inh -14% and Vaccinia Venus inconclusive.
Screening CN1CCN(C(=O)c2cccc(-c3cnc4cnc(-c5ccccc5Oc5ccccc5)cn34)c2)CC1 returned VACV mCherry inh 5% and Vaccinia Venus -11%.
`CO/N=C/NC(=O)c1c(OC)ccnc1Oc1ccccc1` gave VACV mCherry inh inactive and Vaccinia Venus -11%.

Bioassay records (PubChem)
